AF4-AF9 inh: MLL-AF4/AF9 protein interaction inhibition | P42568 | 350,000 compounds, 0.47% hits | AlphaScreen, biotin-AF4 peptide binding to FLAG-AF9 | AID 651704 | inhibition, % at 10 µM;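 active means every replicate reaching a set inhibition limit, whatever the replicate mean, cut at about 25% in these data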;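 further: 0% = plate neutral control median and 100% = total signal loss; the record names both 10 and 1 µM as test concentration; the first replicate is given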
Target sequence (P42568 whole entry, looked up): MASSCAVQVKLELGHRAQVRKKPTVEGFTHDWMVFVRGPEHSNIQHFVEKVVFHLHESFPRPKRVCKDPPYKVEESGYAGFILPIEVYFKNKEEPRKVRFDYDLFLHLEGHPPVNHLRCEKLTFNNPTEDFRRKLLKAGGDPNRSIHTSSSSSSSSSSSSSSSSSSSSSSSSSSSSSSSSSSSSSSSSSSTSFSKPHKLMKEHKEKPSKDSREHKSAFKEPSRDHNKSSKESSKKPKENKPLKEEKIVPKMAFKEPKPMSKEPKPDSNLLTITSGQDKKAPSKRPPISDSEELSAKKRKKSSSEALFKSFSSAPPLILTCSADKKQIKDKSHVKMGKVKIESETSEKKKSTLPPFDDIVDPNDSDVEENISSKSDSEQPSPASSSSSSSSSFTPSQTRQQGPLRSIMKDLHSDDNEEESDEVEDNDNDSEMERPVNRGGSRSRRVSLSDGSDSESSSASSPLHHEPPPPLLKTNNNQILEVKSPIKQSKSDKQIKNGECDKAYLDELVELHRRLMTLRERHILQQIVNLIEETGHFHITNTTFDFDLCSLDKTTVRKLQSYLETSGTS
An asterisk follows results filed as active; & = joins results of further samples.

AF4-AF9 inh | molecule
-2.7 | CC(C)NC(=O)Nc1ccc2c(c1)C(=O)N([C@@H](C)CO)C[C@@H](C)[C@H](CN(C)C(=O)Nc1ccc(F)cc1)OCCCC[C@H](C)O2
0.0 | O=C(N[C@@H]1CC[C@@H](CCn2cc(C3(O)CCCC3)nn2)O[C@@H]1CO)c1ccccc1F
13 | C[C@@H]1CN([C@@H](C)CO)C(=O)c2cc(/C=C/c3ccccc3)cnc2O[C@H]1CN(C)C(=O)c1ccc(F)cc1
-3.0 | Cc1ccc(S(=O)(=O)Nc2cccc3c2O[C@H](CN(C)C(=O)Nc2ccccc2)[C@@H](C)CN([C@H](C)CO)C3=O)cc1
-3.1 | CCCC(=O)N1CCCC1(C)C(=O)Nc1cccc(OC(C)C)c1 (stereo not given)
0.4 | O=C(Cc1ccccn1)N[C@@H]1CC[C@@H](CCNS(=O)(=O)c2cccc(F)c2)O[C@H]1CO
-7.4 | CN1C(=O)c2cc(NC(=O)C3CCC3)ccc2OC[C@H]2O[C@@H](CC(=O)NCC3CCCCC3)CC[C@H]21
1.9 | Cc1ccc(NC(=O)C2(C)CCN2Cc2csc3ccccc23)cc1 (stereo not given)
-0.5 | CCC(=O)N(C)C[C@@H]1Oc2ncc(-c3ccc(C#N)cc3)cc2C(=O)N([C@@H](C)CO)C[C@@H]1C
1.7 | CN(C)CC#Cc1ccc([C@@H]2[C@H]3CN(C(=O)Nc4ccccc4F)CCCCN3[C@H]2CO)cc1
-2.2 | COc1ccc(-c2cnc3c(c2)C(=O)N([C@@H](C)CO)C[C@H](C)[C@H](CN(C)C(=O)Cc2ccncc2)O3)cc1
4.5 | Cc1noc(C)c1S(=O)(=O)N(C)C[C@@H]1Oc2c(NC(=O)c3nc4ccccc4s3)cccc2C(=O)N([C@H](C)CO)C[C@@H]1C
2.2 | O=C(CCN1CCCCC1)N[C@@H]1CC[C@@H](CCNS(=O)(=O)c2ccc(Cl)cc2)O[C@@H]1CO
1.9 | C[C@H](CO)N1C[C@H](C)[C@@H](CN(C)C(=O)CC2CC2)Oc2cc(-c3ccccc3)ccc2S1(=O)=O
-0.9 | C[C@H](CO)N1C[C@H](C)[C@H](CN(C)C(=O)Nc2ccccc2)Oc2c(NS(=O)(=O)c3ccc(F)cc3)cccc2C1=O
0.4 | C[C@@H]1CN([C@H](C)CO)C(=O)Cc2cc(NC(=O)c3ccncc3)ccc2O[C@@H]1CN(C)S(=O)(=O)c1ccc(Cl)cc1
-7.4 | COc1cccc(-c2ccc3c(c2)[C@H]2[C@H](CCN2C(=O)c2ccccn2)[C@H](CO)N3)c1
1.0 | C[C@H]1CN([C@@H](C)CO)C(=O)c2ccccc2-c2ccccc2CO[C@H]1CN(C)C(=O)[C@H](Cc1ccccc1)N(C)C
-1.8 | O=C(Nc1cccc(F)c1)N1C[C@@H]2[C@H](c3ccccc31)[C@H](CO)N2C(=O)C1CCOCC1
-2.7 | CCOc1ccc(CCN2C(=S)N([C@@H](Cc3ccc(O)cc3)CN3CCC[C@@H]3CN3C(=S)NC[C@@H]3Cc3ccccc3)C[C@@H]2Cc2ccccc2)cc1
-3.5 | O=C(O)c1cccc(C(=O)O)c1S(=O)Cc1ccccc1 (stereo not given)
15 | O=C(C[C@H]1CC[C@@H]2[C@H](COC[C@@H](O)CN2Cc2ccc(Oc3ccccc3)cc2)O1)Nc1nccs1
1.5 | C[C@@H]1CN([C@H](C)CO)C(=O)c2cccc(NC(=O)Nc3ccc(C(F)(F)F)cc3)c2O[C@H]1CN(C)CC1CC1
3.5 | CN(C)CC(=O)N1[C@@H](C#N)[C@H](c2ccc(C#CC3CCCC3)cc2)[C@@H]1CO
-4.1 | CCCC(=O)N1CCC1(C)C(=O)NS(=O)(=O)c1cccc(C)c1 (stereo not given)

Gathered by group: the compounds so far with a Cl atom
AF4-AF9 inh | molecule
2.2 | O=C(CCN1CCCCC1)N[C@@H]1CC[C@@H](CCNS(=O)(=O)c2ccc(Cl)cc2)O[C@@H]1CO
0.4 | C[C@@H]1CN([C@H](C)CO)C(=O)Cc2cc(NC(=O)c3ccncc3)ccc2O[C@@H]1CN(C)S(=O)(=O)c1ccc(Cl)cc1

Going on with the list:
AF4-AF9 inh | molecule
13 | C[C@H](CO)N1C[C@H](C)[C@H](CN(C)C(=O)Nc2cccc3ccccc23)OCCCC[C@H](C)Oc2ccc(NC(=O)CCCN(C)C)cc2C1=O
-24 | C[C@@H]1CN([C@H](C)CO)C(=O)Cc2cc(NS(=O)(=O)c3ccc(F)cc3)ccc2O[C@H]1CN(C)Cc1ccccc1
1.8 | CC(C)C#Cc1ccc([C@H]2[C@@H](CO)N3C(=O)CN(C(=O)c4ccc5c(c4)OCO5)C[C@@H]23)cc1
-1.2 | Cc1noc(C)c1NC(=O)N(C)C[C@H]1Oc2ccc(NC(=O)c3ccncc3)cc2C(=O)N([C@H](C)CO)C[C@H]1C
-1.7 | C[C@@H]1CCCCO[C@H](CN(C)C(=O)Nc2cccc3ccccc23)[C@@H](C)CN([C@H](C)CO)C(=O)c2cc(NC(=O)Cc3ccccc3)ccc2O1
-0.1 | CCNC(=O)C[C@H]1CC[C@@H]2[C@H](COc3ccc(NC(=O)c4ccccc4)cc3C(=O)N2C)O1
25* | O=C(C1CCCC1)N1CC[C@@H]2[C@@H](CO)Nc3ccc(-c4cccc(F)c4)cc3[C@@H]21
2.6 | CN(C)CC(=O)N1[C@H](CO)[C@H](c2ccc(C#CC3CCCC3)cc2)[C@@H]1C#N
0.1 | CCCCC[C@H](C)N1C[C@H](COCc2ccccc2)Oc2cc(N3CCC[C@@H]3COC)ccc2S1(=O)=O
0.2 | C[C@@H]1CN([C@H](C)CO)C(=O)c2cc(NC(=O)Nc3cccc4ccccc34)ccc2O[C@@H]1CN(C)S(=O)(=O)c1cn(C)cn1
-3.5 | O=C(c1ccc2c(c1)OCO2)N1CC2(C1)[C@H](c1ccccc1)[C@H](CO)N2C(=O)C1CC1
7.8 | CSc1ccc(C(O)c2ncc(-c3ccc(F)cc3)[nH]2)cc1 (stereo not given)
-1.6 | COc1ccc(S(=O)(=O)N(C)C[C@H]2Oc3ccc(NS(C)(=O)=O)cc3C(=O)N([C@@H](C)CO)C[C@H]2C)cc1
6.3 | CC(C)NC(=O)N1CCCCN2[C@@H](CO)[C@H](c3ccc(C#Cc4ccccc4)cc3)[C@@H]2C1
1.5 | C[C@@H]1CN([C@H](C)CO)C(=O)Cc2cc(NC(=O)CCCN(C)C)ccc2O[C@@H]1CN(C)S(=O)(=O)c1ccccc1
1.4 | O=C(C[C@H]1C[C@H]2c3cc(NS(=O)(=O)c4ccc(F)cc4)ccc3O[C@H]2[C@H](CO)O1)NCCc1ccccc1
-12 | CCCCn1c(N)c(N(C(=O)CSc2nncn2-c2ccccc2C)C2CCCC2)c(=O)[nH]c1=O
-1.4 | O=C(c1ccncc1)N1CC(=O)N2[C@H](C1)[C@H](c1ccc(-c3ccccc3)cc1)[C@@H]2CO
-7.8 | CC1Cc2[nH]c(=S)[nH]c(=O)c2C(c2ccc(C(C)C)cc2)O1 (stereo not given)
2.9 | CC(C)C#Cc1ccc2c(c1)O[C@H](CN(C)C(=O)Cc1ccccn1)[C@@H](C)CN([C@H](C)CO)S2(=O)=O
0.9 | CCCC#Cc1ccc([C@@H]2[C@@H](CO)N3C(=O)CN(C(=O)c4cccnc4)C[C@H]23)cc1
6.4 | CCc1nc2c(OCCC3CCCCC3)cccn2c1N(C)C(=O)c1ccncc1
-6.7 | COc1cccc(C(NC(C)=O)c2nc(-c3ccccc3C)cs2)c1 (stereo not given)
-2.1 | CN1[C@H](C(=O)N2CCc3ccccc3C2)[C@@H](CO)[C@@H]2Cn3c(ccc(-c4cncnc4)c3=O)[C@@H]21
-1.9 | COC(=O)[C@H](CC(C)C)NS(=O)(=O)c1c(F)cccc1F

Arranged by molecular weight (lowest first): 7 of the compounds above
AF4-AF9 inh | molecule
-1.4 | O=C(c1ccncc1)N1CC(=O)N2[C@H](C1)[C@H](c1ccc(-c3ccccc3)cc1)[C@@H]2CO
-7.4 | COc1cccc(-c2ccc3c(c2)[C@H]2[C@H](CCN2C(=O)c2ccccn2)[C@H](CO)N3)c1
-1.8 | O=C(Nc1cccc(F)c1)N1C[C@@H]2[C@H](c3ccccc31)[C@H](CO)N2C(=O)C1CCOCC1
-0.1 | CCNC(=O)C[C@H]1CC[C@@H]2[C@H](COc3ccc(NC(=O)c4ccccc4)cc3C(=O)N2C)O1
1.9 | C[C@H](CO)N1C[C@H](C)[C@@H](CN(C)C(=O)CC2CC2)Oc2cc(-c3ccccc3)ccc2S1(=O)=O
-0.9 | C[C@H](CO)N1C[C@H](C)[C@H](CN(C)C(=O)Nc2ccccc2)Oc2c(NS(=O)(=O)c3ccc(F)cc3)cccc2C1=O
0.4 | C[C@@H]1CN([C@H](C)CO)C(=O)Cc2cc(NC(=O)c3ccncc3)ccc2O[C@@H]1CN(C)S(=O)(=O)c1ccc(Cl)cc1

(list continues)
AF4-AF9 inh | molecule
-3.8 | C[C@H](O)C#Cc1ccc2c(c1)O[C@H](CN(C)C)[C@@H](C)CN([C@H](C)CO)S2(=O)=O
3.2 | O=C(C[C@@H]1CC[C@H]2[C@@H](COC[C@H](O)CN2Cc2cc(F)ccc2F)O1)NCc1ccc(Oc2ccccc2)cc1
-2.0 | CCCCN1C[C@H](COC(=O)CCC)Oc2cccc(F)c2S1(=O)=O
-0.6 | O=C(Nc1ccc2c(c1)OCO2)N[C@H]1CC[C@H](CCNC(=O)C2CCC2)O[C@@H]1CO
-3.4 | C[C@@H]1CN([C@H](C)CO)C(=O)c2cc(NC(=O)CCC(F)(F)F)ccc2O[C@H]1CN(C)S(=O)(=O)c1cccs1
1.4 | CCCCN1CC(COCc2ccccc2)Oc2cccc(N3CCCC3)c2S1(=O)=O (stereo not given)
-5.2 | COCCCN1C(=O)C(CC(=O)NC(c2ccccc2)c2ccccc2)CC(C(=O)N(C(C)C)C(C)C)=C1C (stereo not given)
3.3 | C[C@H](NC(=O)N(C)C[C@@H]1OCc2ccccc2-c2c(n(C)c3ccccc23)C(=O)N([C@@H](C)CO)C[C@H]1C)c1ccccc1
-3.8 | O=C(N[C@H]1CC[C@@H](CCNS(=O)(=O)c2ccc(Cl)cc2)O[C@H]1CO)c1cnccn1
0.3 | CC=Cc1ccc2n(c1=O)C[C@H]1[C@H](CO)[C@@H](C(=O)N[C@@H](C)c3ccccc3)[C@@H]2N1Cc1ccncc1 (mixture of isomers)
-0.8 | C[C@@H]1CN([C@H](C)CO)C(=O)c2c(c3ccccc3n2C)-c2ccccc2CO[C@@H]1CN(C)C(=O)Nc1cccc(C(F)(F)F)c1
-1.5 | CCC(=O)N(C)C[C@@H]1Oc2cc(C#Cc3cccnc3)ccc2S(=O)(=O)N([C@@H](C)CO)C[C@@H]1C
9.3 | C[C@H]1CN([C@@H](C)CO)S(=O)(=O)c2ccc(C3=CCCCC3)cc2O[C@H]1CN(C)Cc1ccccc1F
-2.1 | CCOC(=O)Nc1cc(=O)c([N+](=O)[O-])c(N)[nH]1
-1.0 | O=C(NCC[C@@H]1CC[C@@H](NS(=O)(=O)c2cccc(F)c2)[C@@H](CO)O1)C1CCCCC1
1.2 | CNc1cc(-c2ccc(OC)nc2)ncn1
0.0 | C[C@H]1CN([C@@H](C)CO)C(=O)c2cccc(NC(=O)NC3CCCCC3)c2O[C@@H]1CN(C)C(=O)NC1CCCCC1
-6.8&2.7 | O=C(Nc1ccccc1F)N1C[C@@H]2N[C@H](C1)C2c1ccc(-c2cccc(F)c2)cc1 (stereo not given in full)
-0.2 | CC(C)CC#Cc1ccc([C@H]2[C@H](CO)N3C(=O)CN(C(=O)Cc4ccccc4)C[C@@H]23)cc1
-2.9 | COc1ccc(NC(=O)Nc2ccc3c(c2)C(=O)N([C@H](C)CO)C[C@H](C)[C@@H](CN(C)CC2CCCCC2)OCCCC[C@@H](C)O3)cc1
-1.6 | C[C@@H]1CN([C@@H](C)CO)C(=O)c2cccc(NC(=O)C3CCCCC3)c2O[C@H]1CN(C)CC1CC1
-1.4 | C[C@@H]1CN([C@@H](C)CO)C(=O)Cc2cc(NC(=O)C3CC3)ccc2O[C@@H]1CN(C)S(C)(=O)=O
1.6 | Cc1cccc(C)c1-n1nnnc1C1c2ccccc2C(=O)N1CCc1ccc(O)cc1 (stereo not given)
-1.8 | C[C@@H]1CN([C@H](C)CO)C(=O)c2cccc(NS(=O)(=O)c3ccc(Cl)cc3)c2O[C@H]1CN(C)C
-3.1 | C=CCOc1cccn2c(N(C=O)Cc3ccc(OC)cc3)c(CC)nc12
-1.9 | O=C(NCC[C@@H]1CC[C@@H](NS(=O)(=O)c2ccc(Cl)cc2)[C@H](CO)O1)c1ccccc1F
-1.0 | CC(C)NC(=O)N(C)C[C@H]1Oc2cc(-c3ccccc3)ccc2S(=O)(=O)N([C@@H](C)CO)C[C@H]1C
-18 | C[C@H]1CN([C@@H](C)CO)C(=O)c2cc(NS(=O)(=O)c3ccc(F)cc3)ccc2O[C@H]1CN(C)Cc1ccc(C(=O)Nc2ccccc2N)cc1
-0.8 | O=C(NCCc1ccncc1)[C@H]1[C@H](CO)[C@H]2Cn3c(ccc(-c4ccccc4)c3=O)[C@@H]1N2
-2.7 | CC(C)NC(=O)N(C)C[C@H]1Oc2c(NC(=O)Nc3ccc(F)cc3)cccc2C(=O)N([C@H](C)CO)C[C@H]1C
-0.4 | C[C@@H]1CN([C@@H](C)CO)C(=O)c2cc(NS(=O)(=O)c3ccc(Cl)cc3)ccc2O[C@H]1CN(C)Cc1ccc(C(=O)O)cc1
0.9 | COc1ccc2c3c(n(C)c2c1)[C@H](CO)N(C)CC31CN(C(=O)c2ccc3c(c2)OCO3)C1
-11 | c1cnn2c(-c3ccc4c(c3)CCO4)cnc2c1
-2.0 | COc1ccc(NC(=O)N[C@H]2CC[C@H](CCNC(=O)CCN3CCCCC3)O[C@H]2CO)cc1
-2.0 | Cc1noc(C)c1NC(=O)N(C)C[C@@H]1OCCCC[C@@H](C)Oc2ccc(NC(=O)c3ccncc3)cc2C(=O)N([C@@H](C)CO)C[C@H]1C

A portion of the library. The share of hits here may be higher or lower than overall.
